Six1-Eya2 inh: qHTS Assay for Inhibitors of the Six1/Eya2 Interaction; Homeobox protein SIX1 (Homo sapiens) + Protein phosphatase EYA2 (Homo sapiens), …; AlphaScreen GST-Six1/His-Eya2 binding, biochemical; hits give low values; control for the full effect not named in the record; activity change, % (no concentration beside the values); 360,000 compounds, 0.56% hits; in the data active = activity change below about -65%; inconclusive = about -30% to -65%; inactive = above about -30%; further: on the % scale 0 is the no-effect control and ±100 the full control effect
Target sequence (O00167 whole entry, looked up): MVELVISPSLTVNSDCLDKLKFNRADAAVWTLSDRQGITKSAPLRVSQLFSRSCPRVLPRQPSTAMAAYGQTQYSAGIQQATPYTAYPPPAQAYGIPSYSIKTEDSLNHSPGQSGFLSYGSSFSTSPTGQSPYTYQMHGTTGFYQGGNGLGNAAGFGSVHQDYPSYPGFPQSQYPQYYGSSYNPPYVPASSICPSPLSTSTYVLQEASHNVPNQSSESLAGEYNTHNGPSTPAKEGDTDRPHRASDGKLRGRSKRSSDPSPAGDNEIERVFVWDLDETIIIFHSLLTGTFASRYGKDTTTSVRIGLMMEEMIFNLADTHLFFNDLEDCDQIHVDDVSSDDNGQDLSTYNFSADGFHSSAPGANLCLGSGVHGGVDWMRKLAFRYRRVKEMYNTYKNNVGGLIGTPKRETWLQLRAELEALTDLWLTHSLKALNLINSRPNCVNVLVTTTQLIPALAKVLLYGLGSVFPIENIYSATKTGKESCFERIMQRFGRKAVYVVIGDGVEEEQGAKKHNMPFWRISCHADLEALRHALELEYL
Target sequence (Q15475 whole entry, looked up): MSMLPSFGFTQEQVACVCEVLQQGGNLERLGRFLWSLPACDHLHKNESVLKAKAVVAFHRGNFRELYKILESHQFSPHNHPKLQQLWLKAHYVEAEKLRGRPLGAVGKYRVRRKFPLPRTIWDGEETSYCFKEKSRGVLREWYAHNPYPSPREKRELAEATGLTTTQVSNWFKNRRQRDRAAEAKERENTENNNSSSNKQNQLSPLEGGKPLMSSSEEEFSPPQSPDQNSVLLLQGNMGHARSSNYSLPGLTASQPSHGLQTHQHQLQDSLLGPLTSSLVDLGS
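GST-Six1 + His-Eya2 (5X stock: 250/500 nM); Tris pH 8.0, 300 mM NaCl, 0.05% BSA, 0.02% Tween 20; GSH donor/Ni acceptor beads; 1 h 37 °C dark; AlphaScreen readout.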
D2 agonist: Beta-Arrestin HTS for Positive Allosteric Modulators of the Human D2 Dopamine Receptor: Agonists; activation, % (no concentration beside the values); D(2) dopamine receptor (Homo sapiens), P14416; 360,000 compounds, 0.084% hits; DiscoveRx PathHunter D2 beta-arrestin, luminescence, 90 min; 100% = 57 uM dopamine signal; in the data active = activation above about 40%; inconclusive = about 15% to 40%; inactive = below about 15%; further: compound concentration not given in the record; the text of the record calls up to 30% inactive
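DiscoveRx PathHunter D2 beta-arrestin cells (2,100/well) attached overnight, then compound-stimulated 90 min at 37 C in HBSS/10 mM HEPES/0.1% Tween-20 buffer; beta-galactosidase complementation read by luminescence after 1 h at ambient temperature. Dopamine 57 uM final (EC100) as control.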
gsp ag: qHTS for Agonist of gsp, the Etiologic Mutation Responsible for Fibrous Dysplasia/McCune-Albright Syndrome: qHTS; gsp mutant cells, cAMP HTRF, 30 min; control for the full effect not named in the record; Potency, µM (top dose mostly 76.9 µM), inactives show at the top dose activation (cAMP increase), actives largely listed as activators; 340,000 compounds, 0.13% hits; AID 624287, 2012; active = well fitted activation curve with a large enough effect; inconclusive = small, poorly fitted or top-dose-only effect, or another doubt; inactive = no such curve, though single readings can be large or run the other way; cell line not stated here;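 further: phosphodiesterase inhibitor Ro 20-1724 added with compounds to block cAMP breakdown; potency means the concentration at half of the fitted maximal effect; nearly all actives have a fitted effect of over 60% in size; about a fifth of the inactives were tested at one dose only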
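Cells in DMEM/10% FBS with G418 were pretreated with compounds in DMSO plus […] (300 uM stock) for 30 min at 37C. cAMP was measured by HTRF (cAMP-d2 plus anti-cAMP antibody-K) after 30 min at room temperature.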
CtBP-E1A blk: qHTS Assay for Inhibitors of the CtBP/E1A Interaction. AlphaScreen GST-E1A/His-CtBP binding, 1536-well; hits give low values; control for the full effect not named in the record. activity change, % (no concentration beside the values). 340,000 compounds, 0.49% hits; in the data active means activity change below about -65%; inconclusive means about -30% to -65%; inactive means above about -30%; further: on the % scale 0 is the no-effect control and ±100 the full control effect
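AlphaScreen with 125 nM GST-E1A and 125 nM His-CtBP (5X stocks) in Tris pH 8.0, 300 mM NaCl, BSA, Tween 20, TCEP. Compounds preincubated 2 h at 37 deg C, then glutathione donor/nickel acceptor beads added for 1 h at 37 deg C in dark.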
D2 potentiator: Beta-Arrestin HTS for Positive Allosteric Modulators of the Human D2 Dopamine Receptor: Potentiators; D(2) dopamine receptor (Homo sapiens), P14416; DiscoveRx D2 beta-arrestin cells, luminescence, 90 min; 100% = 57 uM dopamine signal; potentiation, % (test concentration not listed); 360,000 compounds, 0.23% hits; AID 624464, 2012; active = potentiation of 50% or more; inconclusive = 30% to 50%; inactive = 30% or less;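 further: compound concentration not given in the record; tested on top of an EC20 dose of dopamine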
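PathHunter beta-arrestin assay in DiscoveRx D2 cells. Compounds were added with an EC20 of dopamine (50 nM final) for 90 min at 37 deg C. Luminescence was read 1 h after detection reagent, with 57 uM dopamine as the EC100 control.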
gsp antag: qHTS for Antagonists of gsp, the Etiologic Mutation Responsible for Fibrous Dysplasia/McCune-Albright Syndrome: qHTS; gsp-mutant cells, cAMP HTRF, 30 min; control for the full effect not named in the record; 340,000 compounds, 0.4% hits; Potency, µM (highest dose often 76.9 µM), inactives show at the top dose activity change, negative = inhibition, usual class: inhibitors; active = falling curve of any shape with a large fitted effect; inconclusive = falling curve, mostly with a smaller effect; inactive = flat or rising curve; cell line not stated here;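 further: intracellular cAMP measured with PDE inhibitor Ro 20-1724 present during compound exposure; potency means the concentration at half of the fitted maximal effect; on the % scale 0 is the no-effect control and ±100 the full control effect; nearly all actives have a fitted effect of over 65% in size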
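Cells, 2000/well, grown 16–24 h in DMEM 10% FBS with 0.5 mg/ml G418, then compounds plus […] (300 uM addition stock), 30 min at 37C. cAMP read by HTRF (cAMP-d2 and anti-cAMP antibody-K in lysis buffer) after 30 min RT.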
* marks the source's active call; other numbers are inactive results; u = inconclusive; x = not tested or not shown; [ ] = remark or other dose.

SMILES | Six1-Eya2 inh | D2 agonist | gsp ag | CtBP-E1A blk | D2 potentiator | gsp antag
CC(=O)OCCN1C(=O)c2ccc(-c3nc4ccccc4c(=O)o3)cc2C1=O | 3 | -4.6 | 24%[15.4 µM] | 2 | -1 | -2%
Cc1ccc(N(C)S(=O)(=O)c2c(C)noc2/C=C/N(C)C)cc1 | -7 | -1.3 | 1% | x | -4 | -14%
O=C(NCCc1ccccc1)C1CCCN(C(=O)Nc2ccc(F)cc2)C1 (stereo not given) | 12 | -2.3 | 12%[15.4 µM] | -6 | -4 | 1%
COC(=O)CNC(=O)COC(=O)c1ccc(Cl)nc1 | -5 | -3.6 | 2%[15.4 µM] | 4 | -33 | 12%
Cc1ccc(C2(C(F)(F)F)NC(=O)N3N=C4CCCCCN4C3=C2C#N)cc1 (stereo not given) | 1 | -1.5 | -6%[15.4 µM] | -1 | -9 | u
O=C(CN(c1cccc(C(F)(F)F)c1)S(=O)(=O)c1ccccc1)N1CCOCC1 | 14 | u | -3% | 3 | 0 | 12%
Cc1nc2c(sc3nc4c(cc32)COC(C)(C)C4)c(=O)n1CC(=O)NCc1ccco1 | -5 | 1.5 | 26% | 2 | -8 | 14%
Nc1nc(NCc2ccccc2)n(-c2ccccc2)n1 | -1 | -2.0 | 7%[15.4 µM] | 5 | -6 | 20%
COc1ccc(CNCc2cn(-c3cccc(F)c3)nc2-c2ccc(C)o2)cc1 | -16 | -8.6 | -3% | -19 | -20 | -1%
CCc1ccc2[nH]c(=O)c(-c3ccccc3)c(O)c2c1 | 1 | 5.3 | -22% | 2 | 4 | -8%
CC(C)(C)c1ccc(C(=O)Nc2ccc(CC(=O)O)cc2)o1 | 2 | -1.3 | 7% | 7 | -12 | -19%
COc1ccc(S(=O)(=O)NC2CC(C)(C)NC(C)(C)C2)c2ccccc12 | 3 | 2.2 | -6%[15.4 µM] | 14 | -32 | 10%
Cc1ccc(S(=O)(=O)NCC(=O)OCc2cc(=O)oc3cc(C)ccc23)cc1 | 11 | -1.7 | 29% | 30 | 1 | -33%
O=C(NC(c1ccc(F)cc1)c1ccc2ccccc2n1)C1CCN(CCOc2ccc(Cl)cc2Cl)CC1 (stereo not given) | -7 | 1.8 | x | -18 | -5 | x
O=C1C(Cc2ccccc2)Nc2ncnc(N3CCc4ccccc4C3)c2N1Cc1ccc(Cl)cc1 (stereo not given) | -13 | -4.9 | x | -7 | -7 | -13%
COc1ccc(C(=O)Nn2c(CC(C)C)nc3cc(OC)c(OC)cc3c2=O)c(OC)c1 | -4 | -4.2 | 8% | x | -19 | -13%
O=C(N/N=C1\CC2CC=CC12)c1ccc(Br)cc1 (stereo not given) | 3 | -3.8 | -13%[15.4 µM] | 7 | -38 | 10%
O=C(NCc1n[nH]c(=O)c2ccccc12)C1CC(=O)N(c2ccc(Cl)cc2)C1 (stereo not given) | -2 | -2.0 | -13% | -1 | 5 | 6%
COc1ccc2cc(CCC(C)=O)ccc2c1 | 2 | -1.7 | x | 11 | 4 | -9%
COc1cc(Cl)nn(-c2ccccc2)c1=O | 1 | -1.8 | -1% | 5 | 2 | 7%
Cc1cc(C)cc(N(CC(=O)NCc2ccc3c(c2)OCO3)C(=O)CCC(=O)Nc2ccccn2)c1 | 3 | -2.0 | -12% | -5 | -8 | -9%
CCOc1ccccc1-n1c(SCC(N)=O)nnc1-c1ccc(O)cc1 | -90* | -2.6 | 4% | -90* | 0 | -17%
CCOC(=O)C(C)On1c(-n2nc(C)cc2C)nc2ccccc2c1=O (stereo not given) | 3 | -0.1 | -4% | 3 | -5 | 11%
CCOc1ccccc1C(=O)NCC(=O)NCCCc1ccccc1 | 0 | -1.2 | -5%[15.4 µM] | 6 | -7 | 2%
O=C(C[C@@H]1C/C=C\CCCC(=O)OC[C@@H]2CCCN2C1=O)N[C@@H](CO)Cc1ccccc1 | 4 | 3.0 | x | 9 | -7 | 7%
Carrying on.
SMILES | Six1-Eya2 inh | D2 agonist | gsp ag | CtBP-E1A blk | D2 potentiator | gsp antag
Cc1cc(C(=O)N/N=C2\CCCC(=O)C2)c(C)n1-c1ccccc1 | 0 | -4.8 | 15%[15.4 µM] | -10 | -10 | -3%
CCNC(=O)COC(=O)CCC(=O)c1cccs1 | 10 | 0.8 | 7% | 1 | -4 | 16%
Clc1c(Cl)c(Cl)c2n[nH]nc2c1Cl | -10 | -4.7 | u | -8 | -5 | u
COc1ccc(CCNC(=O)C2CCCN(S(=O)(=O)c3ccc(F)cc3)C2)cc1OC (stereo not given) | 9 | 0.6 | -12%[15.4 µM] | -21 | -21 | 7%
CCOC(=O)N1CCC(Nc2c(Nc3ccc(F)cc3)c(=O)c2=O)CC1 | -5 | 1.7 | -2% | -6 | -9 | -16%
COCCN(CC1CCCN(C2Cc3ccccc3C2)C1)C(=O)CCC(C)=O (stereo not given) | -10 | -2.3 | -6% | -11 | -4 | 5%
CCC(Oc1ccccc1)C(=O)NCc1cccnc1 (stereo not given) | 0 | 0.1 | -8% | -10 | -1 | 10%
CCc1ccccc1NC(=O)CNC(=O)CNC(=O)c1cccs1 | 1 | -3.6 | 1% | x | -5 | 10%
CC(C)C1C(=O)N(Cc2cn(Cc3ccco3)nn2)CCS(=O)(=O)N1Cc1ccc(-c2ccccc2)cc1 (stereo not given) | -5 | -3.9 | -42%[inhibitor] | 2 | 0 | x
COc1ccc(OC)c(NC(=O)c2ccc(S(=O)(=O)N3CCOCC3)cc2)c1 | -11 | -2.1 | 13%[15.4 µM] | -2 | -13 | -2%
CCCNS(=O)(=O)c1cc(Cl)ccc1OC | 3 | 5.5 | 26%[15.4 µM] | x | -5 | -2%
CC(NC(=O)c1ccccc1SCC(=O)N1CCCC1)c1ccc(F)cc1 (stereo not given) | 6 | -5.3 | -31%[inhibitor] | -1 | -23 | 0%
CCCCc1nc2cc(C(=O)NCc3cn(C)nc3C)ccc2o1 | 1 | 3.1 | 7% | -1 | -2 | 35µM*
CCSC1=N/C(=C\c2ccccc2)C(=O)N1 | 6 | -0.6 | 4%[15.4 µM] | -3 | -9 | 0%
COc1ccc(NC(=O)C2(C)Cc3c(-c4cccc(C(F)(F)F)c4)ccnc3O2)cc1OC (stereo not given) | -10 | -2.1 | x | -15 | -11 | x
COc1ccc(C(=O)CSc2nc(C(C)(C)C)nc3ccccc23)cc1 | 27 | -2.5 | 0% | 25 | 0 | -2%
COc1ccc(C(C)=O)cc1CSc1nnnn1-c1ccc(O)cc1 | -4 | -3.5 | 19% | x | -9 | -14%
CCOC(=O)C1CCN(C(=O)CSCc2nc(-c3ccc(OCC)cc3)oc2C)CC1 | -5 | -1.7 | 6% | -7 | 6 | -16%
N=C1C=CC(=C(c2ccc(N)cc2)c2ccc(N)cc2)C=C1 | -24 | -9.6 | -3% | 0 | -42 | -9%
CCn1nc(C(=O)OCc2cccc(S(=O)(=O)N(C)C)c2)c2ccccc2c1=O | 1 | 2.7 | 22% | 1 | -7 | u
Cc1ccccc1OCC(=O)NC(=S)Nc1ccc(S(=O)(=O)NC2CCCCC2)cc1 | 7 | 1.7 | -20% | 0 | -6 | -2%
Cc1nc(C)c(CCNC(=O)c2ccc(C(F)(F)F)cc2)s1 | 4 | -0.8 | -28% | -2 | -6 | 1%
CC(=O)Nc1ccc(S(=O)(=O)NCCC(=O)N2CCN(c3ccccc3Cl)CC2)cc1 | 4 | -3.7 | -34%[inhibitor] | x | -16 | 2%
O=C(NCc1cccnc1)c1sc2ccccc2c1Cl | -3 | -2.4 | 25% | 2 | -17 | -4%
COc1cccc(OC)c1C(=O)Nc1cccnc1 | -1 | 7.7 | 1% | x | -5 | 8%

Another view of part of the listing above:
Structure	Six1-Eya2 inh	D2 agonist	gsp ag	CtBP-E1A blk	D2 potentiator	gsp antag
CCn1nc(C(=O)OCc2cccc(S(=O)(=O)N(C)C)c2)c2ccccc2c1=O	1	2.7	22%	1	-7	u
O=C(CN(c1cccc(C(F)(F)F)c1)S(=O)(=O)c1ccccc1)N1CCOCC1	14	u	-3%	3	0	12%
O=C1C(Cc2ccccc2)Nc2ncnc(N3CCc4ccccc4C3)c2N1Cc1ccc(Cl)cc1 (stereo not given)	-13	-4.9	x	-7	-7	-13%
Cc1ccc(N(C)S(=O)(=O)c2c(C)noc2/C=C/N(C)C)cc1	-7	-1.3	1%	x	-4	-14%
Cc1nc2c(sc3nc4c(cc32)COC(C)(C)C4)c(=O)n1CC(=O)NCc1ccco1	-5	1.5	26%	2	-8	14%

Fetched by compound from the list above:
SMILES | Six1-Eya2 inh | D2 agonist | gsp ag | CtBP-E1A blk | D2 potentiator | gsp antag
COc1cccc(OC)c1C(=O)Nc1cccnc1 | -1 | 7.7 | 1% | x | -5 | 8%
CCCNS(=O)(=O)c1cc(Cl)ccc1OC | 3 | 5.5 | 26%[15.4 µM] | x | -5 | -2%

Following part
SMILES | Six1-Eya2 inh | D2 agonist | gsp ag | CtBP-E1A blk | D2 potentiator | gsp antag
COc1ccccc1NC(=O)Cn1c(C)nc2c(sc(=S)n2Cc2ccco2)c1=O | -10 | -1.6 | u | -1 | -4 | u
COc1ccc2cc(CN(CC3CCCO3)S(=O)(=O)c3ccc(C(C)=O)cc3)c(=O)[nH]c2c1 (stereo not given) | 1 | -1.1 | -26% | -1 | -22 | -7%
COc1ccc(/C=N/NC(=O)c2cc(O)c(O)c(O)c2)cc1Cn1cc([N+](=O)[O-])cn1 | u | 10 | -8% | -3 | -7 | -15%
Fc1ccc(C(Nc2ccccn2)c2c[nH]c3ccccc23)cc1 (stereo not given) | 3 | -4.0 | -16% | x | -7 | -5%
CCN(CC)S(=O)(=O)c1cccc2nsnc12 | -3 | -3.0 | -18% | -4 | -4 | 12%
CCOC(=O)CCc1ccc(NC(=O)/C=C/c2ccc([N+](=O)[O-])o2)cc1 | -9 | 9.0 | 10% | 13 | -1 | -14%
Cc1cc(O)c2/c(=N\N)c(-c3csc(C)n3)coc2c1 | -5 | -2.7 | 7% | 3 | -4 | 3%
Cc1cccc(C(=O)Nc2cc(C)ccc2NC(=O)COc2ccccc2)c1 | 5 | 0.8 | -3% | 0 | -11 | -15%

Screening results (PubChem)
